# PINK1 expr mod – A Quantitative High throughput Screen to Identify Chemical Modulators of PINK1 Expression. PINK1 immunofluorescence, high-content cytometry, 24 h. 410,000 compounds, 0.2% hits. Potency, µM (doses to about 76.6 µM), for inactives: at the highest dose activation (PINK1 increase), hits mostly activators; active = well fitted activation curve with a large enough effect; inconclusive = small, poorly fitted or top-dose-only effect; inactive = flat fitted curve, though single readings scatter; cell line not stated here;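 also: % of control where 0% means no effect; nearly all actives have a fitted effect of over 65% in size; a mitochondrial uncoupler was the plate control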
#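 PINK1 protein, normally rapidly degraded, was detected by immunofluorescence after 24 hour compound treatment of a stable cell line. Titration data (5 concentrations) came from laser-scanning cytometry, with CCCP-treated wells as controls.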
# * marks the source's active call; other numbers are inactive results; ? = inconclusive. Potency is read from the fitted curve at half-maximal effect. Only part of the results is shown; count on the stated rates, not on these rows.
SMILES,PINK1 expr mod
Cc1c(Cl)cccc1NC(=O)CSc1cc(-c2ccccc2)ncn1,0.8%
CCN(CC)S(=O)(=O)c1ccc2c(c1)N(CC(=O)Nc1cccc(C#N)c1)C(=O)CO2,1.1%
COc1ccc(C2CC(=O)c3c([nH]c(C(=O)OC4CCCCCC4)c3C)C2)cc1OC (stereo unspecified),4.0%
CC(=O)N1CCCc2cc(S(=O)(=O)Nc3ccc(Cl)cc3F)ccc21,6.2%
COc1ccccc1NC(=O)C1=C(C)Nc2nc(SCC(=O)c3ccc(C)cc3)nn2C1c1ccccc1C (stereo unspecified),4.3%
O=C(NCC1(N2CCOCC2)CCCCC1)c1cnn(-c2nccc(-c3cccs3)n2)c1C1CC1,1.6%
CCc1ccc(-n2c(=O)c3c4c(sc3n(Cc3ccc(F)cc3)c2=O)CCCC4)cc1,1.8%
CCOc1ccc(CNC(=O)c2cc3ccccn3n2)cc1OC,0.5%
CCOc1ccc(NC(=O)c2cc3c(=O)n(Cc4cccs4)ccc3nc2C)cc1,0.1%
O=c1c(N2CCc3ccccc3C2)csc2ccccc12,2.4%
Cc1cccc(-c2c3c(=O)n(C)c(=O)n(C)c3cn2-c2cc(N)c(Cl)cc2Cl)c1,1.4%
Cc1ccccc1Oc1nc2ccccn2c(=O)c1/C=C(\C#N)c1nc2ccccc2[nH]1,1.0%
Cc1sc(-c2cc3ccccc3oc2=O)nc1-c1ccc(Cl)c(Cl)c1,0.9%
COc1ccc(N2CCN(C(=O)CCc3c(C)nn(-c4ccc(N5CCCC5)nn4)c3C)CC2)cc1,1.9%
COc1cc(-c2nc3ccc(Cl)cn3c2Nc2ccc3c(c2)OCCO3)ccc1O,0.1%
Cc1c(C(=O)NCc2ccccc2Cl)sc2ncnc(NCC3CCCO3)c12 (stereo unspecified),0.5%
COc1ccc(CCNC(=O)CCn2c(=O)c3ccccc3n(Cc3ccc(Cl)cc3)c2=O)cc1OC,4.2%
Cc1ccc(CNC(=O)CSc2ncc(S(=O)(=O)c3ccc(C)c(Cl)c3)c(=O)[nH]2)cc1,-0.3%
CC(CC(=O)NCc1ccc(Cl)cc1Cl)CC1=NS(=O)(=O)c2ccccc2N1 (stereo unspecified),0.4%
CC(C)C1N=C2c3ccccc3N=C(SCC(=O)NCc3ccccc3Cl)N2C1=O (stereo unspecified),0.2%
CC1=C(c2ccc(C)c(C)c2)S(=O)(=O)N=C1N1CCC(C(=O)NCc2ccc(Cl)cc2)CC1,0.9%
CCOC(=O)c1c(NC(=O)c2cc3ccccc3c(=O)o2)sc2c1CCC(C)C2 (stereo unspecified),0.4%
CCOc1ccc(C2c3[nH]c4ccccc4c3CCN2C(=O)CCc2ccccc2)cc1 (stereo unspecified),0.4%
COc1ccc(-c2cn3c(n2)sc2cc(C(=O)Nc4c(C)cccc4C)ccc23)cc1,3.4%
COc1ccc(Cl)cc1NC(=O)c1ccc2c(c1)CCCN2S(C)(=O)=O,4.0%
COc1ccc(OC)c(CNC(=O)CSc2c3c(nc4cc(Cl)ccc24)CCCC3)c1,3.6%
Cc1ccc(C(=O)Nc2cc(-c3nc4cc(Cl)ccc4o3)ccc2C)c(C)c1,1.2%
CCOC(=O)COc1ccc(/C=C(\C#N)c2nc3ccc(C)cc3[nH]2)cc1OC,-0.9%
CCCN(C(=O)c1cn(C)c(=O)c2cc(OC)c(OC)cc12)c1ccc(CC)cc1,0.2%
Cc1cc(Nc2ccccc2Cl)n2nc(-c3ccco3)nc2n1,-0.3%
Cc1nc2ncnn2c(C)c1CCC(=O)NCc1ccc(Cl)cc1,2.1%
COc1cccc(CNC(=O)CN2C(=O)CCn3nc(-c4cn(C)c5ccccc45)cc32)c1OC,0.1%
O=c1c(S(=O)(=O)c2ccccc2)cn(Cc2ccc(F)cc2)c2cc(N3CCCC3)c(F)cc12,-0.8%
Cc1ccc(-n2nnnc2CNC(=O)c2ccccc2)cc1C,0.6%
CC(=O)N1CCc2cc(CNC(=O)Nc3ccc(Br)c(C)c3)ccc21,6.3%
Fc1ccc(Nc2nc(-c3cccc(Cl)c3)c3c(n2)-c2ccccc2OC3)cc1,2.5%
COc1cccc(CNC(=O)CCn2c(=O)c3cccn3c3ccc(F)cc32)c1OC,-1.1%
CC(C)c1ccc(NC(=O)CSC2=Nc3ccccc3C3=NC(CCC(=O)NC4CCCCC4)C(=O)N23)cc1 (stereo unspecified),-0.3%
C=CCNc1nc(NC2CCN(C)CC2)c2cc(OC)c(OC)cc2n1,-0.3%
CCOc1ccc(CNC(=O)c2sc3ncnc(N(C)C4CCCCC4)c3c2C)cc1,-0.6%
O=C(Nc1cccc(C(F)(F)F)c1)c1cc2nc(-c3ccc4c(c3)OCO4)cc(C(F)(F)F)n2n1,3.1%
Cc1ccc(N=C2NC(=O)CC(C(=O)Nc3cc(C(F)(F)F)ccc3Cl)S2)cc1 (stereo unspecified),?
COc1cccc2[nH]c(C(=O)NCc3ccc4c(c3)CCN4C(=O)c3ccc(F)cc3)cc12,1.7%
CCCCOC(=O)c1ccc(NS(=O)(=O)c2c(C)nc3scc(C)n3c2=O)cc1,3.1%
Cc1oc2c(c1C(=O)NCc1cccc(Br)c1)C1=NCCN1C=N2,-0.7%
CCSc1ncc(Cl)c(C(=O)Nc2sc3c(c2C(=O)NCCOC)CCCC3)n1,3.0%
Cc1ccccc1CN1CCc2nnc(C(C)NC(=O)C3CCN(C)CC3)n2CC1 (stereo unspecified),0.7%
Cc1ccc2c(c1)-c1nc(-c3ccc(Cl)cc3)cc(-c3coc4ccccc4c3=O)c1CO2,0.2%
Cc1csc(CNc2ncnc3ccc(-c4ccccc4Cl)cc23)c1,2.1%
O=C(Nc1cc(F)ccc1F)c1ccc2c(c1)nnn2C1CCCC1,3.4%
# The list goes on.
SMILES,PINK1 expr mod
Cc1ccc(-c2onc(C)c2C)cc1S(=O)(=O)NCc1ccco1,4.8%
O=C([C@@H]1C[C@@H](Sc2nc3ccccc3[nH]2)CN1Cc1ccc(C(F)(F)F)cc1)N1CCN(c2ccccc2F)CC1,2.0%
O=C1CCN(Cc2cccc(C(F)(F)F)c2)CCN1Cc1ccccn1,1.5%
COc1cccc(NC(=O)CCc2nnc3n(CC(C)C)c(=O)c4ccccc4n23)c1,2.6%
Cc1cc(C)cc(NC(=O)CC(C)n2nc(C)cc2C)c1 (stereo unspecified),0.8%
COc1ccccc1N1CCN(CCCNC(=O)c2nnc(Cc3ccc(F)cc3Cl)o2)CC1,-1.6%
Cc1ccc2c(c1)c1c(c(=O)n(Cc3ccccc3)c(=O)n1Cc1ccccc1F)n2C,0.1%
COc1ccc(-c2cc(C(F)(F)F)nc(SCC(=O)N3CCCCC3)n2)cc1OC,2.4%
Cc1cccc(CSc2nc3ccncc3n2Cc2ccc(C(=O)O)cc2)c1,-1.3%
COc1ccc(Nc2ncc(C(=O)Nc3cccc(Cl)c3)c3ccccc23)cc1,0.2%
Cc1ccc(NC(=O)c2oc3ccc(S(=O)(=O)N4CCCCC4)cc3c2C)cc1C,2.9%
CCOC(=O)N1CCC(NC(=O)c2cnn(-c3ccc(C)cc3)c2-n2cccc2)CC1,1.4%
Cc1ccccc1-c1ncnn1-c1sc2c(c1C#N)CCCCC2,1.6%
CCOc1ccc(OCC)c(NC(=O)c2cnc(SC)nc2-c2ccccc2)c1,1.1%
CC(C)OCCCNC(=O)c1ccc(CSc2nc3cccnc3n2Cc2ccccc2)cc1,3.3%
COc1ccc(-c2nc(Cn3c(SCc4cccc(F)c4)nc4cccnc43)c(C)o2)cc1,1.2%
COc1ccc2cc(CNc3ccc(OC)c(OC)c3)c(=O)n(CC(=O)Nc3ccc(C)cc3)c2c1,15%
COc1ccccc1Nc1c2c(nc3ccc(NC(=O)/C=C/c4cccc(OC)c4OC)cc13)CCCC2,15%
O=C(Cn1c(=O)nc(-c2ccccc2)c2cc(Cl)ccc21)N1CCN(c2ccccc2F)CC1,4.0%
COc1cccc(-n2c(=O)c3c(C)c(C(=O)N(C)C)sc3n(Cc3ccc(F)cc3Cl)c2=O)c1,1.0%
CC(O)(c1ccccc1)[N+]1(CC(=O)c2ccccc2)C=CC=C1 (stereo unspecified),2.2%
Cc1ccc(-c2sc(C(=O)Nc3ccc(Br)cc3)cc2CC(=O)O)cc1,-0.9%
CCOC(=O)c1oc2c(c1C)-c1nn(Cc3ccccc3Cl)cc1CC2,1.2%
COc1cccc(C2(CC(=O)N3CCC(c4nc5ccccc5o4)CC3)CC(=O)N(C)C2=O)c1 (stereo unspecified),0.2%
Cc1ccc(C(=O)N2CCC(C)CC2)cc1NC(=O)c1nsc2ccccc12,3.8%
Cc1ccc(CNC(=O)c2c[nH]n3c(=O)c(Cc4ccc(F)cc4Cl)c(C)nc23)cc1,25%
CCCCN(CCCC)C(=O)c1cc2c(=O)n3cccc(C)c3nc2s1,13%
Cn1c(=O)c2c(-c3ccccc3)n3c(c2n(C)c1=O)C(c1ccc([N+](=O)[O-])cc1)Nc1ccccc1-3 (stereo unspecified),-0.5%
CCOc1ccc(NC(=O)Cc2ccc(NC(=O)N3CCCCc4ccccc43)cc2)cc1,0.5%
CCCCCCC(=O)Nc1cc2nc3c(nc2cc1C)c(=O)n(C)c(=O)n3C,0.4%
Cc1cc(C)c(NC(=O)Cn2ccn(-c3cccc(Cl)c3)c(=O)c2=O)c(C)c1,0.2%
CC(C)(C)OC(=O)N1CCC(c2nnc(SCc3ccccc3)o2)CC1,-0.7%
O=C(NCCSc1c[nH]c2ccccc12)c1ccc(Cl)cc1,2.1%
COc1ccc(CNC(=O)CN2N=C(c3ccc(Cl)cc3)CCC2=O)cc1,-0.6%
COc1ccc2c(c1)CC(NC(=O)Nc1cc(Cl)ccc1OC)CO2 (stereo unspecified),0.1%
COc1ccc(-n2nc(C(=O)Nc3ccc(Br)cc3C)c3c4ccccc4n(C)c3c2=O)cc1,0.5%
O=C(NC1CCCC1)c1cn(C2CCCN(Cc3ccc4c(c3)OCCO4)C2)nn1 (stereo unspecified),0.4%
COc1ccccc1C(=O)NC(=O)Nc1ccc(-n2nc(C(F)(F)F)cc2C(F)(F)F)cc1,-1.3%
O=c1n(Cc2ccccc2Cl)c2ccccc2c2nc(-c3ccccc3)nn12,1.5%
Cc1cc(C)c(NC(=O)CCCN2C(=O)COc3ccc(C)cc32)c(C)c1,0.5%

# A section from further up, for reference:
SMILES,PINK1 expr mod
COc1ccc(CNC(=O)CN2N=C(c3ccc(Cl)cc3)CCC2=O)cc1,-0.6%
COc1ccc2c(c1)CC(NC(=O)Nc1cc(Cl)ccc1OC)CO2 (stereo unspecified),0.1%
COc1ccc(-n2nc(C(=O)Nc3ccc(Br)cc3C)c3c4ccccc4n(C)c3c2=O)cc1,0.5%
O=C(NC1CCCC1)c1cn(C2CCCN(Cc3ccc4c(c3)OCCO4)C2)nn1 (stereo unspecified),0.4%
COc1ccccc1C(=O)NC(=O)Nc1ccc(-n2nc(C(F)(F)F)cc2C(F)(F)F)cc1,-1.3%
O=c1n(Cc2ccccc2Cl)c2ccccc2c2nc(-c3ccccc3)nn12,1.5%
Cc1cc(C)c(NC(=O)CCCN2C(=O)COc3ccc(C)cc32)c(C)c1,0.5%

# Other entries:
SMILES,PINK1 expr mod
COc1ccc(N2CC(NC(=O)/C=C\c3ccc4c(c3)OCO4)CC2=O)cc1OC (stereo unspecified),0.3%
CC1(C)c2[nH]c3ccccc3c2C[C@@H]2C(=O)N(Cc3ccccc3)C(=O)N21,1.3%
COc1ccccc1C(=O)N[C@@H]1c2ccccc2C2(CCN(C(=O)c3csnn3)CC2)[C@H]1OC,-0.3%
Cc1ccccc1C(=O)Oc1c(Sc2ccccc2)c(C)nn1C(C)(C)C,2.4%
CCc1nc2nc(C)cc(Nc3ccc(F)c(Cl)c3)n2n1,-1.6%
CCC(C)NC(=O)Cn1c(=O)n(CCCC(=O)NCc2ccc(C)cc2)c(=O)c2ccccc21 (stereo unspecified),-0.1%
NS(=O)(=O)c1ccc(NC(=O)C2Cc3ccccc3N2C(=O)c2ccccc2)cc1 (stereo unspecified),0.7%
O=C(CSc1nc(=O)[nH]c2c1CCCC2)NCc1ccc(F)cc1,-0.1%
COc1ccc2[nH]cc(CCN=C(NC(=O)c3cccc(Cl)c3)Nc3nc(C)cc(C)n3)c2c1,2.5%
CCCc1cc(=O)[nH]c(SCc2nc(-c3ccc(OCC)cc3)no2)n1,2.4%

# Quoted at random: 4 entries already listed.
SMILES,PINK1 expr mod
Cc1ccccc1C(=O)Oc1c(Sc2ccccc2)c(C)nn1C(C)(C)C,2.4%
COc1ccc2[nH]cc(CCN=C(NC(=O)c3cccc(Cl)c3)Nc3nc(C)cc(C)n3)c2c1,2.5%
CCC(C)NC(=O)Cn1c(=O)n(CCCC(=O)NCc2ccc(C)cc2)c(=O)c2ccccc21 (stereo unspecified),-0.1%
COc1ccc(N2CC(NC(=O)/C=C\c3ccc4c(c3)OCO4)CC2=O)cc1OC (stereo unspecified),0.3%

# The results go on:
SMILES,PINK1 expr mod
CCN(CC)c1ccc(NC(=O)CN2CCN(CC(=O)Nc3ccc(Cl)cc3)CC2)cc1,1.3%
CCOC(=O)Cn1c(=O)oc2cc(S(=O)(=O)N3CCN(c4ccc(Cl)cc4)CC3)ccc21,-1.2%
Cc1cccc(C(=O)Nc2ccc(S(=O)(=O)N3CCC(c4nc5ccccc5s4)CC3)cc2)c1,1.7%
CCCCS(=O)(=O)c1oc(-c2cccs2)nc1S(=O)(=O)c1ccc(F)cc1,1.0%
COc1ccc(S(=O)(=O)c2cn(C)c3cc(N4CCCCCC4)c(F)cc3c2=O)cc1,-0.8%
CCN1CCN(C(c2cccc(F)c2)c2c(O)cc(C)n(CCOC)c2=O)CC1 (stereo unspecified),0.5%
CCOc1ccc(C2C(C(=O)OC)=C(C)NC3=C2C(=O)c2ccccc23)cc1OC (stereo unspecified),-1.1%
CC(=O)Nc1cccc(-c2nnc(SCC(=O)c3ccc([N+](=O)[O-])cc3)o2)c1,-0.6%
